# CDC25B CDK2 inh – human CDC25B-CDK2/CyclinA binding inhibition | P30305+P24941 | HTRF CDC25B-CDK2/CyclinA binding, anti-His/anti-Flag; stronger effect = higher value | z-score (concentration not given with the values) | actives 0.72% (n = 94,000) | AID 1259370;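 further: score is relative to mean and SD of negative controls; strong numbers were not always called active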
# HIV TAR-Tat – HIV-1 TAR-Tat binding disruption | HIV-1 TAR RNA, Tat peptide displacement FRET; stronger effect = higher value | z-score (test concentration not listed) | actives 0.6% (n = 100,000) | AID 1259389;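 further: score is relative to mean and SD of negative controls; some compounds called inactive have numbers as strong as hits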
# An asterisk follows results filed as active; nt = no result given.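 How the source made its calls: active means z-score from 3 up in half or more of its runs; inactive means the rest.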
SMILES,CDC25B CDK2 inh,HIV TAR-Tat
COc1ccc(CCN2C(=O)c3oc4cc(C)cc(C)c4c(=O)c3C2c2ccc(O)c(OC)c2)cc1 (stereo not drawn),-0.81,0.41
Cc1cc2ccccc2n1CCNC(=O)C(=O)c1cn(CC(=O)N2CCOCC2)c2ccccc12,nt,-0.1
CCOc1ccc2[nH]c(C)c(CN3CC4(C)CC3CC(C)(C)C4)c(=O)c2c1 (stereo not drawn),-2.09,nt
Cc1cccc(C2Nc3ccccc3NC3=C2C(=O)CC(c2ccccc2)C3)c1 (stereo not drawn),-0.44,-2.48
O=C(c1cccs1)N1CCN(C(=O)C2CCCCC2)CC1,-2.44,nt
CCOC(=O)C1=C(C)NC2=C(C(=O)c3ccccc32)C1c1cc(Br)c(OC)c(OCC)c1 (stereo not drawn),-1.83,1.84
COc1cccc(CC2C(=O)Nc3ccccc32)c1 (stereo not drawn),-0.8,-0.79
Cn1c(=O)c(=O)n(C)c2cc(S(=O)(=O)N3CCC(N4CCCCC4)CC3)ccc21,-0.41,1.79
Nc1cccc(C(=O)CC2(O)C(=O)N(Cc3ccc(Cl)cc3)c3ccccc32)c1 (stereo not drawn),-1.11,2.25
Cc1c(CC(=O)NNS(=O)(=O)c2ccccc2C(F)(F)F)sc2ccc(Cl)cc12,-1.2,nt
O=C(NCCO)c1c(O)c2cccc3c2n(c1=O)CC3,nt,0.72
Cc1nnc(N2CCC(C(=O)N3CCc4ccccc4C3)CC2)c2nn(-c3ccccc3)c(C)c12,nt,-1.7
Cc1cc2nc(SCC(=O)C(C)(C)C)[nH]c2cc1C,-1.83,-1.32
CCCCCCCOc1ccc(OC(=O)c2ccncc2)cc1,0.16,1.64
Cc1ncc(-c2ccc(C)c(S(=O)(=O)NCc3ccco3)c2)o1,nt,1.29
CC1CCCCN1C(=O)Nc1noc2c1COc1ccccc1-2 (stereo not drawn),nt,2.28
Cn1cc(Cl)c(/C=C(\C#N)C(N)=O)n1,1.21,nt
C1=Cn2nc(/C=C/c3c[nH]c4ccccc34)nc2-c2ccccc2O1,8.03,-6.84
Oc1ccccc1/C=N/c1ncn[nH]1,-1.69,nt
CC(C)N1CCn2c(nc3cc(Cl)ccc32)C1,-1.8,-1.13
Cc1ccc(C2=NN=C(NC(=O)CSc3nnc4c(n3)[nH]c3ccccc34)SC2)cc1,-1.49,nt
CC1=C(C(=O)OCCOc2ccccc2)C(c2ccc(C)o2)C2=C(CC(c3cccs3)CC2=O)N1 (stereo not drawn),1.34,-0.05
O=C(Cn1cc2c(n1)CCCC2)NC1CCCC1,-0.78,1.54
COc1ccc2ncc(S(=O)(=O)c3ccccc3)c(N3CCCCC3C)c2c1 (stereo not drawn),2.69,0.19
C=CCn1c(SCC(=O)Nc2ccc3c(c2)OCCO3)nc2sc3c(c2c1=O)CCC3,-1.63,1.58
# Remaining list, next part:
SMILES,CDC25B CDK2 inh,HIV TAR-Tat
CCc1nnc2c(Nc3ccc(N4CCOCC4)cc3)nc3ccccc3n12,nt,1.63
COc1ccc(S(=O)(=O)Nc2cc(-c3cn4cccc(C)c4n3)ccc2C)cc1,0.38,0.89
O=C(CCn1[nH]c(=O)c2ccccc2c1=O)OC1CCCCC1,-2.14,nt
Cc1cc(NC(=O)Cn2ncc3c(=O)oc4ccccc4c32)no1,-0.89,nt
Cc1ccc(C)c(NC(=O)c2cnc3scc(C)n3c2=O)c1,0.22,nt
C#CCN1C(=O)C(O)(CC(=O)c2ccco2)c2cc(Br)ccc21 (stereo not drawn),-0.69,1.34
Cc1nn(-c2nncc(-c3ccccc3)n2)c2c1C(c1cc(F)ccc1F)CC(=O)N2 (stereo not drawn),1.15,2.73
COc1cnc(CSc2nnc(C)s2)cc1OCC(=O)Nc1ccc2c(c1)OCO2,nt,0.63
CC(C)c1ccc(C2Nc3ccc4ncccc4c3C3=C2C(=O)CCC3)cc1 (stereo not drawn),-0.03,0.54
COc1ccc2nc(SCCN3CCOCC3)[nH]c2c1,-0.65,-0.45
Cc1ccc2c(c1)-c1onc(C(=O)N3CC(C)CC(C)C3)c1CO2 (stereo not drawn),nt,1.76
Cn1c(/C=C/c2ccc([N+](=O)[O-])o2)nc2ccccc2c1=O,-1.45,-8.3
CCn1cc(C(=O)O)c(=O)c2cc(F)c(-n3nnc(C(=O)OC)c3C(=O)OC)cc21,0.28,nt
CCCN1C(=O)C(Cc2nc3ccccc3c(=O)n2CCc2ccccc2)c2ccccc21 (stereo not drawn),-0.85,2.46
CCc1cccc(Nc2c3c(nc4ncnn24)CCC3)c1,nt,0.34
CSc1nnc(-c2ccccc2)c(=O)[nH]1,0.31,0.8
Cc1ccc2nc(-c3cccnc3)c(NC3CCCC3)n2c1,-0.77,-0.59
Nc1c(-c2nc(-c3ccc(Br)cc3)no2)nnn1-c1ccccc1F,nt,1.02
CCOC(=O)N1CCN(c2nc3ccc(C)cc3n3cnnc23)CC1,0.09,0.4
CC(NCCc1ccc(O)cc1)C(O)c1ccc(O)cc1 (stereo not drawn),nt,0.37
CN(CCNC(=O)CN1C(=O)CCn2nc(-c3cn(C)c4ccccc34)cc21)C1CCCCC1,nt,1.8
COc1ccc(-c2nnsc2N2C(=O)c3ccccc3C2=O)cc1,-0.41,nt
O=C(c1cnn2c(C(F)F)cc(-c3ccccc3)nc12)N1CCN2CCCC2C1 (stereo not drawn),-1.55,-0.68
O=C(CNS(=O)(=O)c1ccc(Br)s1)N1CCN(c2ncccn2)CC1,0.54,nt
CCn1c(C(=O)N2CCC(C(=O)N3CCN(Cc4ccccc4)CC3)CC2)cc2sccc21,-2.03,nt
# Additional results.
SMILES,CDC25B CDK2 inh,HIV TAR-Tat
Cc1oc(-c2ccccc2Cl)nc1CSc1nc2ccncc2[nH]1,-1.29,0.2
CCCN[C@H]1CS(=O)(=O)C[C@@H]1S(=O)(=O)c1ccc(C)cc1,-0.35,0.15
CCOc1ccc(CN=C2NS(=O)(=O)C(c3ccc(C)cc3)=C2C)cc1,-7.62,1.56
Cn1c(COc2ccccc2)n[nH]c1=S,-1.02,nt
COc1ccc(-c2nc(OC)c3c4c(sc3n2)CCCC4)cc1,-2.86,-0.62
O=C(Nc1ccccc1Br)n1ncc2cc(Cl)ccc21,-1.5,1.54
Cc1nnc(SCc2ccc(F)cc2Cl)c2cc3occc3n12,nt,2.82
COC(=O)c1ccccc1NC(=O)c1ccc2c(c1)OCCCO2,-0.69,nt
O=C(CSc1ccc2nnc(-c3ccc(Cl)cc3)n2n1)Nc1ccc2c(c1)OCCO2,-3.99,nt
O=C(Cn1cnc([N+](=O)[O-])n1)NCc1cccnc1,-0.28,0.12
O=C(Oc1cc2ccccc2cc1C(=O)O)c1cccc(Cl)c1,-1.04,nt
COc1ccc(Cl)cc1S(=O)(=O)N1CCc2ccccc2C1,-0.84,nt
Cc1cn(C(=O)c2snnc2C)nc1-c1cccs1,-2.38,nt
Cc1ccccc1NC(=O)C1CC2CSCN2C12C(=O)Nc1ccccc12 (stereo not drawn),nt,0.21
O=C(Cn1nc(-c2ccc(Cl)cc2)c2ccccc2c1=O)c1ccccc1,-2,2.09
COc1ccccc1Nc1nc(-c2ccncc2)nc2ccccc12,-1.77,nt
CC1CCN(c2c(NCC3CCC(C(=O)NC4CCCC4)CC3)c(=O)c2=O)CC1 (stereo not drawn),-0.43,2.15
CCOC(=O)N1CCN(C(=O)CCCn2nc(C)n3c(cc4sccc43)c2=O)CC1,-2.37,1.6
Cc1cc2[nH]c(=O)c(=O)[nH]c2cc1S(=O)(=O)N1CCN(C2CCCC2)CC1,nt,1.93
CCOC(=O)N1CCN(C(c2ccc(Br)cc2)c2nnc(-c3ccccc3)o2)CC1 (stereo not drawn),-1.77,0.62
CC(C)(C)C(=O)CN1C=NS(=O)(=O)c2ccccc21,nt,0.3
COCCNc1ncnc2scc(-c3ccc(F)cc3)c12,nt,0.74
NCCCCCCNC1=C(Cl)C(=O)c2ccccc2C1=O,0.27,nt
Cc1ccn2c(=O)c(C(=O)NCCC(C)C)c(O)nc2c1,-1.21,1.22
NCCOC(=O)Nc1nc2ccccc2[nH]1,-1.85,0.16
# More compounds
SMILES,CDC25B CDK2 inh,HIV TAR-Tat
Nc1c(-c2ccccc2)nc2sc(N3CCNCC3)nn12,nt,-0.35
CSc1ccccc1NS(=O)(=O)c1cc2c3c(c1)CC(=O)N3CCC2,nt,3.21
Cc1ccc2oc3nn(-c4ccccc4)c(=O)c-3cc2c1,-0.85,-0.52
CCOc1ccc(N(Cc2cc3cc(C)ccc3[nH]c2=O)S(C)(=O)=O)cc1,-0.58,1.4
O=C(Nc1nc(C2COc3ccccc3O2)cs1)c1cccc(Br)c1 (stereo not drawn),-0.27,0.06
O=c1cc(Cl)sn1Cc1ccccc1,-2.77,nt
O=C(CCc1nnc2ccc(N3CCCCC3)nn12)NCCCN1CCCC1,nt,0.02
O=[N+]([O-])c1cccc(S(=O)(=O)Nc2cc(-c3c(O)ccc4ccccc34)c(O)c3ccccc23)c1,-2.95,nt
O=C1c2cccnc2C(=O)N1Cc1ccc(S(=O)(=O)N2CCC(c3ccccc3)C2)s1 (stereo not drawn),nt,1.13
Cc1nc(N2CCN(c3ccccc3)CC2)c2c(C)c(C)sc2n1,nt,3.17
COC(=O)Nc1ccc(S(=O)(=O)NC2CCS(=O)(=O)C2)cc1 (stereo not drawn),-1.55,1.59
CC1CN(Cc2c(O)ccc3c(=O)c(-c4ccccc4Cl)c(C(F)(F)F)oc23)CC(C)O1 (stereo not drawn),-1.34,0.88
CCN1CCN(C(=O)NC2COc3ccccc3C2)CC1 (stereo not drawn),nt,2.8
CCN(CCS(=O)(=O)N1CCNCC1)S(=O)(=O)c1ccc(Cl)cc1,nt,1.08
COc1cc(OC)cc(C2=NC3(CCCCC3)NC2=O)c1,-0.85,nt
CCOC(=O)c1sc(N2C(=O)C(=O)/C(=C(/O)c3ccccc3)C2c2ccc(F)cc2)nc1C (stereo not drawn),-2.85,0.6
CN(C)c1cccc2c(S(=O)(=O)Nc3ccccc3)cccc12,-0.53,0.19
CN(C)c1ncnc2c1c(-c1ccccc1)cn2-c1ccccc1,0.39,-3.26
CN1C(=O)C2(/C(=C(/O)c3ccc(F)cc3)C(=O)C(=O)N2CCCN2CCOCC2)c2ccccc21 (stereo not drawn),1.76,0.38
CCOC(=O)c1nc(C)nc(Sc2ccc(Cl)cc2)c1C,0.17,nt
CCN1C(=O)C2(c3ccccc31)C(C(=O)Nc1cccc(Br)c1)CC1CSCN12 (stereo not drawn),nt,0.81
COc1cccc(-c2nc(SCc3ccc(Br)cc3)n3[nH]c(=O)cc3n2)c1,nt,-0.28
CC1(C)CC(=O)C2=C(C1)Nc1ccc3ccccc3c1C2c1ccccc1 (stereo not drawn),-0.28,1.59
N#C/C(=C\c1ccc[nH]1)C(=O)Nc1ccsc1C(N)=O,-0.68,nt
COc1cc(CN2CCN(Cc3ccc(C)cc3)CC2)cc2c1OCO2,-0.34,nt
# Next results follow:
SMILES,CDC25B CDK2 inh,HIV TAR-Tat
COc1cccc(-c2cc(C(=O)O)c3c(-c4ccc(Br)cc4)[nH]nc3n2)c1OC,nt,3.69
CC(C)(C)c1ccc(-c2cc(N)n(S(=O)(=O)c3ccc(F)cc3)n2)cc1,0.94,0.45
CCCN1C(=O)c2cc(C(=O)N3CCC(C)CC3)nn2CC1(C)C(=O)NC1CCCC1 (stereo not drawn),nt,0.48
O=C(c1cc(-c2ccco2)[nH]n1)N1CCN(c2ncccn2)CC1,nt,-6.04
CCN(CC)CCCNc1oc(-c2ccc(F)cc2)nc1C#N,-0.96,-0.41
COc1cc(C2c3c(oc4ccccc4c3=O)C(=O)N2Cc2ccc3c(c2)OCO3)ccc1O (stereo not drawn),-1.95,1.19
Cc1noc(C)c1C1CCCN1Cc1ccc(OCc2ccccc2)cc1 (stereo not drawn),nt,2.38
COc1cc(C2c3c(-c4ccccc4O)n[nH]c3C(=O)N2CC2CCCO2)ccc1OCC(C)C (stereo not drawn),0.06,0.82
O=C(NCCSc1ccccc1)c1nc(-n2cnnc2)ccc1Br,nt,2.99
CN1CCN(CC(=O)N2CCc3ccccc32)CC1,-1.64,2.07
O=C(NCCN1CCCc2ccccc21)Nc1ccc(Br)cc1F,-1.27,-1.85
N/C(CSc1ccc(Cl)cc1)=N\S(=O)(=O)c1cc(Cl)cc(Cl)c1,-1.41,nt
Cn1c(=O)c2c(SCC(=O)NCc3ccc4c(c3)OCO4)nc(-c3cccs3)nc2n(C)c1=O,-1.49,nt

# A draw from above in order of heavy-atom count, lowest first.
SMILES,CDC25B CDK2 inh,HIV TAR-Tat
Cn1cc(Cl)c(/C=C(\C#N)C(N)=O)n1,1.21,nt
CSc1nnc(-c2ccccc2)c(=O)[nH]1,0.31,0.8
Cc1cn(C(=O)c2snnc2C)nc1-c1cccs1,-2.38,nt
O=C(c1cccs1)N1CCN(C(=O)C2CCCCC2)CC1,-2.44,nt
Cc1ccc2nc(-c3cccnc3)c(NC3CCCC3)n2c1,-0.77,-0.59
CN(C)c1cccc2c(S(=O)(=O)Nc3ccccc3)cccc12,-0.53,0.19
Cc1oc(-c2ccccc2Cl)nc1CSc1nc2ccncc2[nH]1,-1.29,0.2
CSc1ccccc1NS(=O)(=O)c1cc2c3c(c1)CC(=O)N3CCC2,nt,3.21
CC(C)(C)c1ccc(-c2cc(N)n(S(=O)(=O)c3ccc(F)cc3)n2)cc1,0.94,0.45
Cc1ccccc1NC(=O)C1CC2CSCN2C12C(=O)Nc1ccccc12 (stereo not drawn),nt,0.21
COc1ccc(S(=O)(=O)Nc2cc(-c3cn4cccc(C)c4n3)ccc2C)cc1,0.38,0.89
COc1cnc(CSc2nnc(C)s2)cc1OCC(=O)Nc1ccc2c(c1)OCO2,nt,0.63
Cc1nn(-c2nncc(-c3ccccc3)n2)c2c1C(c1cc(F)ccc1F)CC(=O)N2 (stereo not drawn),1.15,2.73
CC1CN(Cc2c(O)ccc3c(=O)c(-c4ccccc4Cl)c(C(F)(F)F)oc23)CC(C)O1 (stereo not drawn),-1.34,0.88
CCCN1C(=O)C(Cc2nc3ccccc3c(=O)n2CCc2ccccc2)c2ccccc21 (stereo not drawn),-0.85,2.46
COc1cc(C2c3c(-c4ccccc4O)n[nH]c3C(=O)N2CC2CCCO2)ccc1OCC(C)C (stereo not drawn),0.06,0.82

# Screens deposited in PubChem BioAssay by Center for Chemical Genomics, University of Michigan.
